Anthrax LT inh – anthrax lethal toxin internalization inhibition. Cells, anthrax lethal toxin internalization, FRET ratio (460/530). Potency, µM (series often up to 40 µM), for inactives: top-dose activity change, negative = inhibition, most hits filed as inhibitors. hit rate 0.67% among 70,000. AID 912; active = well fitted falling ratio curve with the 530 nm signal flat; inconclusive = other ratio curves, or a change in one channel alone; inactive = flat curves in the ratio and both channels; the % refers to the ratio; note: % is set by controls: 0 for no effect and ±100 for the full control effect; nearly all actives have a fitted effect of over 50% in size; tested in ME-180 cells; beta-lactamase reporter
Prx2 Sm inh – Schistosoma mansoni Prx2 inhibition | S. mansoni Prx2 activity coupled to TGR/GSH (TGR is thioredoxin glutathione reductase), NADPH fluorescence loss, qHTS; some inactives read as strong as hits | Potency, µM | hit rate 0.07% among 65,000; active means full or partial inhibition curve with a strong effect at the top dose; inconclusive means weaker partial or single-point curve; inactive means no accepted curve; note: series up to 57 µM; many of its hits are not listed in these tables
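qHTS, coupled TGR/Prx2 format; 15 min compound preincubation at RT; reaction started with H2O2 (2.5 mM aliquot); kinetic NADPH fluorescence decrease, ex 365/em 450 nm.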
* hit, by the source's call; i = inactive; ? = inconclusive; . = no result given; [ ] = dose if it differs, or a comment. Potency is the fitted concentration of half-maximal effect. The list is partial; count on the stated rates, not on these rows.

SMILES | Anthrax LT inh | Prx2 Sm inh
Cc1cccc(N(C(=O)Nc2ccccc2)C2=NCC(C)S2)c1 (stereo not given) | -18% | >57
COc1cccc([C@H](O)Cn2cc(-c3cccc(CON=C(C)C)c3)nn2)c1 | -4%[1.6 µM] | .
COc1cccc2cc(C(=O)N3CCN(c4ccc(C)cc4C)CC3)c(=O)oc12 | 0% | >57
Cn1c(=O)c2c(nc(SCCN3CCOCC3)n2Cc2cccc3ccccc23)n(C)c1=O | -6% | >57
COc1ccc(OCCCC(=O)Nc2ccc3c(c2)OCO3)cc1 | -11% | .
O=C(C1CCN(S(=O)(=O)c2cccc3nsnc23)CC1)N1CCn2c1nc1ccccc12 | ? | >57
c1ccc(CNc2nc3ccccc3[nH]2)cc1 | ? | >57
O=C(COc1ccccc1)N1CCN=C1c1ccccc1 | 4% | >57
CCOC(=O)COc1ccc(S(=O)(=O)NCc2cccnc2)cc1 | -6% | >57
O=C(CSc1nnc(C2COc3ccccc3O2)o1)N1CCCc2ccccc21 (stereo not given) | ? | >57
COCCCn1c(SCC(=O)Nc2ccc3c(c2)OCCO3)nnc1-c1ccoc1C | -19% | >57
O=C(Cn1cnc2ccccc21)NCc1ccccc1 | -6% | >57
O=c1c(O)c(-c2ccc(O)cc2O)oc2cc(O)cc(O)c12 | -9% | >57
COc1ccc(-n2c(Cc3cc(=O)[nH]c(=O)[nH]3)nnc2SCC(=O)N2CCCC2)cc1 | -5% | >57
COCCOC(=O)C1=C(C)Nc2nc(C)nn2C1c1ccc(F)cc1 (stereo not given) | 17% | >57
CN1CCCCc2c1[nH]c1ccccc1c2=O | 12% | >57
CCOc1ccc(NC(=O)c2ccccc2O)cc1 | -12% | >57
CC1CCCC(NC(=O)CCn2c(=O)oc3ccccc32)C1C (stereo not given) | -7% | >57
COc1cccc(C2C(C#N)=C(N)Oc3cc(C)oc(=O)c32)c1OC (stereo not given) | 3% | .
COC(=O)C(C(C)=O)C(=O)C(Cc1ccccc1)NC(=O)OCc1ccccc1 (stereo not given) | -12%[8 µM] | .
O=C(Nc1cc(N2CCOCC2)ncn1)c1ccccc1 | -2% | >57
COc1ccc(NC(=O)NCCCN2CCCCC2C)cc1 (stereo not given) | 1% | >57
COc1ccc(C2(C(F)(F)F)NC(=O)N(C)C(=O)N2C)cc1 (stereo not given) | -10% | >57
Cc1nc(SCC(=O)NCc2ccco2)c2c(C)c(C)sc2n1 | 13% | >57
c1ccc(-n2ncc3c(N4CCN(c5ccccn5)CC4)nc(N4CCOCC4)nc32)cc1 | 1% | >57
Cc1ccc(-c2csc3ncnc(OCC(=O)NC(=O)NCc4ccco4)c23)cc1 | -23% | >57
COc1ccc(N(CC(=O)Nc2ccc3c(c2)OCCO3)S(=O)(=O)c2c(C)nn(C)c2C)cc1 | -7% | >57
Nc1cc(N)nc(SCc2ccccc2)n1 | -6% | >57
COC(=O)CNC(=O)C1(C)C=CC2(CCCCC2)N1C(=O)OC (stereo not given) | 8% | .
COc1ccccc1NC(=O)Nn1cnnc1 | -1% | >57
COc1ccc(O)c(/C=c2/sc3nc4cc(C)c(C)cc4n3c2=O)c1 | -1% | >57
CC(C)(C)C(=O)Nc1ccccc1C(=O)Nc1cccnc1 | 16% | .
CCCn1cc(NC(=O)c2cc3n(n2)C(C(F)(F)F)CC(c2ccccc2)N3)cn1 (stereo not given) | 5% | >57
Cc1onc(-c2c(F)cccc2Cl)c1C(=O)N1CCc2ccccc2C1 | -13% | >57
Cc1noc(C)c1C(=O)N1CCC[C@@]2(CCN(c3ncccn3)C2)C1 | -1% | >57
O=C(Cc1ccccc1)Nc1nnc(-c2cccs2)s1 | 14% | >57
O=C(CN1CCC(c2nc3ccccc3[nH]2)CC1)Nc1ccc2c(c1)OCO2 | -1% | >57
CC(C)Sc1nc2ccccc2n1CC(N)=O | 15% | .
COc1ccccc1N1C(=O)CC(Sc2nccc(C)n2)C1=O (stereo not given) | -23% | >57
CN(N=O)c1ccc(O)c(O)c1 | -2% | i
COc1ccc(NC(=O)c2ccco2)c(OC)c1 | 17% | >57
COc1ccc(NC(=O)CC2Oc3ccccc3NC2=O)cc1 (stereo not given) | -5% | >57
COc1cccc(Cn2c(=O)c(-c3cc(F)cc(F)c3)nc3cnc(N4CCOCC4)nc32)c1 | ? | >57
Cc1nc2ccc(S(=O)(=O)NC(C(=O)N3CCCC3)C(C)C)cc2s1 (stereo not given) | 0% | >57
Cc1ccc2nc(NC(=O)c3ccc(Cn4cc(Cl)cn4)o3)sc2c1 | -22% | >57
CCOc1cccc(-c2nnc3sc(COc4ccc(Cl)cc4)nn23)c1 | -3% | >57
Nc1nc2[nH]c(=O)cnc2c(=O)[nH]1 | 1% | >57
Cc1ccc(F)cc1NC(=O)Cc1nn(C)c(=O)c2ccccc12 | -1% | >57
CN(C)S(=O)(=O)c1ccc(Oc2ccccc2)cc1 | . | >57
Cc1cccc(NC(=O)Nc2cccc(C)n2)n1 | -20% | >57
CC1(C)Cc2nc3oc4c(=S)nc[nH]c4c3cc2CO1 | . | >57
Cc1nc2cc(-c3cccc(F)c3)nn2c(N2CCOCC2)c1C | -11% | >57
CCN1CCN(C(=O)c2cc3c(=O)oc4ccc(C)cc4c3s2)CC1 | -4% | >57
COc1ccc(S(=O)(=O)N(C)c2ccc(C(=O)N3CCOCC3)cc2)cc1 | -3% | >57
C=CCN(CC(=O)NCc1ccc(OC)cc1)C(=O)c1csnn1 | 21% | >57
Oc1[nH]c2ccccc2c1/C=N/c1nccs1 | -3% | >57
N#Cc1ccccc1 | -8% | .
Clc1cc(Br)ccc1OCCn1ccnc1 | 0% | >57
Cn1c(SCc2ccccn2)nnc1-c1ccncc1 | -10% | >57
CSc1cccc(NC(=O)CN(C)S(=O)(=O)c2ccc(C)cc2)c1 | -6% | >57

Single records (already shown). Values in the order: Anthrax LT inh	Prx2 Sm inh
Nc1nc2[nH]c(=O)cnc2c(=O)[nH]1 across the screens: 1%	>57
CC1(C)Cc2nc3oc4c(=S)nc[nH]c4c3cc2CO1 across the screens: .	>57

Additional compounds:
SMILES | Anthrax LT inh | Prx2 Sm inh
NCCC[C@@H](CC(=O)N[C@@H]1CCNC[C@H]1C(=O)N[C@H](CC(=O)N[C@@H](CCC(=O)O)CC(=O)O)Cc1ccccc1)NC(=O)C[C@H](CO)NC(=O)[C@@H]1CCCC[C@H]1N | -9% | >57
O=C(c1ccc2nc3ccc(Cl)cc3c(=O)n2c1)N1CCC2(CC1)OCCO2 | . | >57
Cc1onc(-c2ccccc2Cl)c1C(=O)OCC(=O)N1CCCc2ccccc21 | -23% | >57
Cn1c(=O)n(CCc2ccccc2)c(=O)c2c1nc1n2CCCN1c1ccc(F)cc1 | -20% | >57
COc1ccc(C(=O)NCc2nnc(SCC(=O)Nc3cccc(C(F)(F)F)c3)o2)cc1OC | -4% | >57
CN1CCN(C(c2ccc(F)cc2)c2nnnn2Cc2cccs2)CC1 (stereo not given) | -3% | >57
CC(C)N(O)C(=O)NC(C)(C)C | 1% | >57
CC1CCN(CCNC(=O)C2CCCN(S(=O)(=O)c3cccc4nonc34)C2)CC1 (stereo not given) | 0% | >57
CNC(=O)[C@@H]1C[C@H]1[C@@H](NC(=O)CNC(=O)OCc1ccccc1)c1ccccc1 | -5% | .
CN(Cc1cccc2ccccc12)Cc1cccc2ccccc12 | -9%[8 µM] | >57
COc1ccc(-c2c(C#N)c(N)nc3c2CCCC3)cc1OC | -6% | >57
O=C(C1CCCN(S(=O)(=O)c2cnc[nH]2)C1)N(CCc1ccccc1)Cc1ccccc1 (stereo not given) | 6% | >57
O=C(CCCC(=O)OCC(F)(F)C(F)F)Nc1nccs1 | 14% | .
CC(C)CC(NC(=O)OC(C)(C)C)C(=O)NC(C(=O)N1CCCC1C(N)=O)C(C)C (stereo not given) | 14% | >57
O=C1C2CC=C(Cl)CC2C(=O)N1CN(Cc1ccco1)CN1C(=O)C2CC=C(Cl)CC2C1=O (stereo not given) | 0% | >57
Cc1c(NC(=O)C2CCCNC2=O)c(=O)n(-c2ccccc2)n1C (stereo not given) | 8% | >57
COC(=O)[C@H]1[C@@H](c2ccccc2)[C@@]2(c3ccccc3)Oc3ccccc3[C@@]1(O)[C@@H]2O | 2%[8 µM] | .
Cc1onc(-c2c(F)cccc2Cl)c1C(=O)N[C@@H]1C(=O)N2[C@H]1SC(C)(C)[C@H]2C(=O)O | ? | >57
O=C(CN1CCC(O)(c2ccc(F)cc2)CC1)NCc1ccc(F)cc1 | 7% | >57
Cc1cc2c(cc1C)N(CC(=O)N1CCCC1)C(=O)CC(c1ccccc1)=N2 | 9% | >57
CC(=O)Nc1ccc(C(=O)NC2CCCC2)cc1 | -2% | >57
c1coc(-c2nc3nc4ccccc4n3nc2-c2ccco2)c1 | 0% | >57
COc1ccc(C(C(=O)OC(C)CN(C)C)c2ccccc2)cc1 (stereo not given) | 9% | >57
COCCNc1nc(-c2cccc(OC)c2)nc2ccccc12 | ? | >57
CN1CCN(/C(=N\S(=O)(=O)c2ccc(F)cc2)c2ccccc2)CC1 | 9% | >57
CC1(C)C2CCC1(C)C(OC(=O)CCn1ccnc1)C2 (stereo not given) | -33% | >57
CCOC(=O)c1c(C)c(C(=O)N2CCCCCC2)c(C)n1CC | -3% | >57
Cn1c(=O)c(-c2cc(F)cc(F)c2)nc2cncnc21 | ? | >57
COc1ccc(N2CC(C)Cn3c2nc2c3c(=O)n(CCc3ccccc3)c(=O)n2C)cc1 (stereo not given) | 1% | >57
COc1ccc(COC(=O)N/N=C2/C[C@@H](O)[C@@H](O)[C@@H]3[C@@H]4C(=O)N(Cc5ccccc5)C(=O)[C@H]4CC[C@H]23)cc1 | 1%[1.6 µM] | .
CNc1ccccc1C(=O)OCC(C)=O | -6%[8 µM] | .
Cc1cc(C(C)(C)C)cc(CNC2CCCCC2)c1O | -3%[8 µM] | >57
Cc1sc2ncnc(SCC(=O)N3CCCC3=O)c2c1C | 10% | >57
O=C(OC1CCOC1=O)c1cncc(Br)c1 (stereo not given) | -1% | >57
Cc1ccc(Nc2nc(C(=O)NCCCN3CCOCC3)cs2)cc1 | -25% | >57
Cc1occc1C(=O)Nc1ccc2ccccc2c1 | -30% | .
C=CCN1C(=O)NC(=O)C(Cc2ccc(OC)c(OC)c2)C1=O (stereo not given) | -19% | >57
N#CCSc1nnc(-c2cccnc2)n1-c1ccccc1 | -1% | >57
Cc1ccc(C)n1NC(=O)c1ccc(Cl)cc1Cl | -16% | >57
Cc1cc(C)c(C#N)c(N2CCSCC2)n1 | ? | >57

Compounds shown so far that have fluorine:
SMILES | Anthrax LT inh | Prx2 Sm inh
COCCOC(=O)C1=C(C)Nc2nc(C)nn2C1c1ccc(F)cc1 (stereo not given) | 17% | >57
COc1ccc(C2(C(F)(F)F)NC(=O)N(C)C(=O)N2C)cc1 (stereo not given) | -10% | >57
CCCn1cc(NC(=O)c2cc3n(n2)C(C(F)(F)F)CC(c2ccccc2)N3)cn1 (stereo not given) | 5% | >57
Cc1onc(-c2c(F)cccc2Cl)c1C(=O)N1CCc2ccccc2C1 | -13% | >57
COc1cccc(Cn2c(=O)c(-c3cc(F)cc(F)c3)nc3cnc(N4CCOCC4)nc32)c1 | ? | >57
Cc1ccc(F)cc1NC(=O)Cc1nn(C)c(=O)c2ccccc12 | -1% | >57
Cc1nc2cc(-c3cccc(F)c3)nn2c(N2CCOCC2)c1C | -11% | >57
Cn1c(=O)n(CCc2ccccc2)c(=O)c2c1nc1n2CCCN1c1ccc(F)cc1 | -20% | >57
COc1ccc(C(=O)NCc2nnc(SCC(=O)Nc3cccc(C(F)(F)F)c3)o2)cc1OC | -4% | >57
CN1CCN(C(c2ccc(F)cc2)c2nnnn2Cc2cccs2)CC1 (stereo not given) | -3% | >57
O=C(CCCC(=O)OCC(F)(F)C(F)F)Nc1nccs1 | 14% | .
Cc1onc(-c2c(F)cccc2Cl)c1C(=O)N[C@@H]1C(=O)N2[C@H]1SC(C)(C)[C@H]2C(=O)O | ? | >57
O=C(CN1CCC(O)(c2ccc(F)cc2)CC1)NCc1ccc(F)cc1 | 7% | >57
CN1CCN(/C(=N\S(=O)(=O)c2ccc(F)cc2)c2ccccc2)CC1 | 9% | >57
Cn1c(=O)c(-c2cc(F)cc(F)c2)nc2cncnc21 | ? | >57
